NS1 function inh: blocks influenza NS1 protein function | S. cerevisiae slowed by influenza A NS1, growth recovery by OD600 | Potency, µM (highest dose often 46.1 µM), for the others: top-dose activity, positive = more growth | 270,000 tested, 0.4% active | AID 2326; active means well fitted rising curve with a large enough effect; inconclusive means small, poorly fitted or top-dose-only effect; inactive means no such curve, though single readings can be large or run the other way; note: nearly all actives have a fitted effect of over 50% in size
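Recovery from NS1-induced slow growth read by OD600 in budding yeast switched to galactose assay medium (pH 6.0, -URA) at 1:100 dilution. Compound 23 nl per well; the matching strain lacking NS1 serves as control.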
Cruzain Triton: inhibitors of Trypanosoma cruzi cruzain with detergent. P25779. purified cruzain, Z-FR-AMC fluorescence, 0.01% Triton. Potency, µM, for the others: max response, negative = inhibition, usual class: inhibitors. 200,000 tested, 0.43% active;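 note: plate controls were neutral wells for no effect and buffer without enzyme for full effect; nearly all actives have a fitted effect of over 40% in size; top concentration of the series not given in the record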
Target sequence (P25779 123-467 limits assumed): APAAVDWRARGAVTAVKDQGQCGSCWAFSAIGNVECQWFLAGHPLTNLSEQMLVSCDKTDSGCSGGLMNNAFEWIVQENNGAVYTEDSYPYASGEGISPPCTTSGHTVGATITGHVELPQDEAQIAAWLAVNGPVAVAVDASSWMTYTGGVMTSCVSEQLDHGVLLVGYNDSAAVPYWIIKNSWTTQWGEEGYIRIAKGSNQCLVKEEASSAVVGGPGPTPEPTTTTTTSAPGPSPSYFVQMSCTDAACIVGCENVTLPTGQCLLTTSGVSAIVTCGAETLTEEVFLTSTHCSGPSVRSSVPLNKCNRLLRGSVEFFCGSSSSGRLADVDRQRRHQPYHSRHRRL
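Detergent-containing arm of a paired screen for aggregation-based inhibition: 0.01% Triton X-100 present. Cruzain at 1.5 nM cleaved 2 uM Z-FR-AMC at pH 5.5 with 5 mM DTT; AMC fluorescence gain over 60 s measured activity.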
Lassa entry inh: blocks Lassa virus binding to or entry into cells. Lassa virus pseudotype entry inhibition, cell reporter; control for the full effect not named in the record. Potency, µM (titrated, usually from 37.9 µM), without a hit: at the highest dose activity change, negative = inhibition, actives largely listed as inhibitors. 300,000 tested, 1.2% active. AID 540256; active means well fitted inhibition curve with a large enough effect; inconclusive means small, poorly fitted or top-dose-only effect, or effect the other way; inactive means flat fitted curve, though single readings scatter; tested in HEK293 cells; note: % is set by controls: 0 for no effect and ±100 for the full control effect; nearly all actives have a fitted effect of over 50% in size; luciferase read-out
Marburg entry inh: Marburg virus entry inhibition. Marburg virus pseudotyped entry inhibition, cell reporter; control for the full effect not named in the record; about a third of the inactives were read at about 46 µM. Potency, µM (highest dose often 37.8 µM), for the others: top-dose activity change, negative = inhibition, actives largely listed as inhibitors. 300,000 tested, 1.8% active; active = well fitted inhibition curve with a large enough effect; inconclusive = small, poorly fitted or top-dose-only effect, or effect the other way; inactive = flat fitted curve, though single readings scatter; tested in HEK293 cells; about a fifth of its hits are not listed in these tables; note: % is set by controls: 0 for no effect and ±100 for the full control effect; luciferase read-out
SARS PLpro yeast: inhibitors of SARS-CoV papain-like protease in yeast; S. cerevisiae expressing SARS-CoV PLpro, growth rescue; control for the full effect not named in the record; Potency, µM (series often up to 32.9 µM), for inactives: at the top dose activity, positive = growth rescue; 330,000 tested, 0.19% active; AID 485353; active means well fitted rising curve with a large enough effect; inconclusive means small, poorly fitted or top-dose-only effect; inactive means no such curve, though single readings can be large or run the other way; note: 0% is about no effect; nearly all actives have a fitted effect of over 55% in size; growth read by luminescence after 48 h
RE007 growth inh: less growth of the S. pombe RE007 Vpr strain. S. pombe RE007 Vpr strain, BacTiter-Glo ATP luminescence, 24 h; control for the full effect not named in the record. Potency, µM (top dose mostly 92.2 µM), for the others: top-dose activity change, negative = less growth. 360,000 tested, 0.21% active. AID 651644; active = well fitted falling curve with a large enough effect; inconclusive = small, poorly fitted or top-dose-only effect; inactive = no such curve, though single readings can be large or run the other way;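 note: % is set by controls: 0 for no effect and ±100 for the full control effect; nearly all actives have a fitted effect of over 50% in size; the assay follows cell death caused by Vpr and the record does not say whether a fall means rescue or toxicity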
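Fission yeast RE007 carrying one integrated HIV-1 vpr copy, seeded at OD 0.01 in PMG+AL medium with 23 nL pinned compound. Grown 24 h at 30 degrees; viability read by BacTiter-Glo luminescence after 5 min.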
2A StopGo: FMDV 2A StopGo reporter, luciferase signal | Potency, µM (doses to about 57.9 µM), without a hit: at the top dose signal change, negative = less light | AID 1159524 | 410,000 tested, 1.2% active | human cells with a luciferase reporter of 2A StopGo recoding; control for the full effect not named in the record; active = well fitted falling curve with a large enough effect; inconclusive = small, poorly fitted or top-dose-only effect; inactive = no such curve, though single readings can be large or run the other way; tested in HEK293T cells; note: % is set by controls: 0 for no effect and ±100 for the full control effect; nearly all actives have a fitted effect of over 45% in size; luciferase light after 4 h
Cruzain inh noDet: inhibitors of Trypanosoma cruzi cruzain without detergent. P25779. purified cruzain, Z-FR-AMC fluorescence, no detergent. Potency, µM, without a hit: max response, negative = inhibition, usual class: inhibitors. 200,000 tested, 2.3% active. AID 1476;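 note: plate controls were enzyme without inhibitor for no effect and buffer without enzyme for full effect; nearly all actives have a fitted effect of over 40% in size; top concentration of the series not given in the record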
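Detergent-free condition (0.00005% Triton X-100) in acetate buffer pH 5.5 with DTT. 1.5 nM enzyme and compound were pre-mixed 15 min, then 2 uM Z-FR-AMC substrate added; reaction progress from fluorescence change between first and third reads (60 s).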
Numbers without * were called inactive; ? = inconclusive; . = no result given; & = joins results of further samples; [ ] = another dose, or the depositor's remark. Unless noted, calls come from the whole dose curve; as a rule, active = well fitted curve in the direction sought with a large enough effect; inconclusive = small, poorly fitted or top-dose-only effect, or another doubt; inactive = no such curve, though single readings can be large; an effect the other way counts as inactive or inconclusive. Potency is the fitted concentration of half-maximal effect.

SMILES	NS1 function inh	Cruzain Triton	Lassa entry inh	Marburg entry inh	SARS PLpro yeast	RE007 growth inh	2A StopGo	Cruzain inh noDet
Cc1cc(C(=O)NNC(=O)CCCCC(=O)NNC(=O)c2cc(C)[nH]n2)n[nH]1	10%	-1.0%	-1%	6%	15%	12%	-19%	25%
NC(=O)CC(NC(=O)Cc1cccc2ccccc12)c1ccc(NC2CC3CCC2C3)c([N+](=O)[O-])c1 (stereo not given)	19%	.	.	.	-5%	9%	-8%	.
Cc1ccc(-c2cc(C(F)F)n3ncc(C(=O)N4CCc5ccccc54)c3n2)cc1	-4%	.	.	.	1%	16%	-18%	.
CC(C)(COC(=O)Nc1ccccc1)COC(=O)Nc1ccccc1	-46%	.	.	.	-5%	-9%	4%	.
CCS(=O)(=O)N1CCC2(CC1)OC(=O)C(C)=C2C(=O)NCc1cccc(Cl)c1	.	-0.3%	18%[46.1 µM]	.	.	.	-4%	-6%
COc1ccc(C(=O)OCC(=O)NCc2ccc3c(c2)OCO3)cc1S(=O)(=O)N1CCOCC1	.	.	18%	13%	3%	8%	0%	.
O=CNCc1nc2ccccc2n1CCc1ccccc1	29%	.	0%	11%	3%	-3%	-21%	.
Cc1c(NC(=O)CN2C(=O)NC(C)(c3ccc4c(c3)OCCO4)C2=O)c(=O)n(-c2ccccc2)n1C (stereo not given)	-1%	-0.2%	-7%	-3%	7%	5%	-9%	0%
CC(=O)N1c2c(cc(Br)cc2S(=O)(=O)NCc2ccccc2)CC1C (stereo not given)	-15%	.	15%[46.1 µM]	?	3%	10%	55%	.
CCc1ccc(CNC(=O)c2sc3ncccc3c2-n2c(C)ccc2C)cc1	.	-10%	-13%[46.1 µM]	.	.	.	0%	-5%
COCCCNC(=O)/C=C/c1c(Cl)cccc1Cl	-6%	-1.8%	8%	16%	-3%	-9%	26%	2%
Cc1nn(-c2ccccc2)c(N)c1-c1ccccc1	.	.	?	?	2%	-14%	19%	.
O=C(O)CCCCCCCCCCP(=O)(c1ccccc1)c1ccccc1	16%	.	4%	-20%[46.1 µM]	1%	12%	10%	.
COc1ccccc1Cn1c(=O)c2ccccc2n2c(Sc3ncnc4sccc34)nnc12	-51%	-1.1%	?	?	-4%	3%	?	16µM*
Cc1cc(Cl)c(S(=O)(=O)N(C)C)cc1OCC(N)=O	2%	-1.8%	-2%	13%	2%	-9%	1%	-1%
CCOc1ccc(C(=O)Nc2nc(-c3ccc(Br)cc3)ns2)cc1	.	-1.9%	27%[46.1 µM]	-17%[46.1 µM]	.	.	-20%	-4%
O=C(O)c1cccc(NC(=O)c2cn(-c3ccccc3)nc2-c2cccc(Br)c2)c1	-17%	.	?	3%	1%	2%	4%	.
N/C(Cc1ccccc1)=N\OC(=O)c1cccc2ccccc12	-55%	-8.1%	?	?	-81%	-19%	?	-4%
COC(=O)NNC(=O)COc1ccccc1C	7%	-0.8%	-3%	?	16%	25%	0%	6%
CCOc1ccc(S(=O)(=O)N2CCC(C(=O)NCc3ccccn3)CC2)cc1C	-24%	.	-9%	5%[46.1 µM]	-3%	10%	-20%	.
O=C(CC12CC3CC(CC(C3)C1)C2)N1CCCOC1	-11%	0.6%	-7%	-4%	-2%	8%	-22%	1%
Cc1ccc(C)c(S(=O)(=O)c2nnn3c2nc(NCc2ccc4c(c2)OCO4)c2sccc23)c1	.	-5.1%	?	.	.	.	-8%	?
O=C(O)Cn1c(-c2ccccn2)nc2ccccc21	-19%	.	.	.	6%	0%	32%[activator]	.
O=c1[nH]c(Cc2ccccc2)nc2c1oc1ccccc12	4%	-3.9%	-1%	8%	3%	-4%	-5%	?
CCN(CC)CCNC(=O)c1cc2c(s1)-c1ccccc1SC2	-2%	.	.	.	-1%	0%	-8%	.
Nc1ccccc1S(N)(=O)=O	.	-5.3%	.	.	.	-8%[18.4 µM]	-14%	1%
NS(=O)(=O)c1ccc(NC(=O)CSc2n[nH]c(=O)n2Cc2ccccc2)cc1	7%	.	-1%[46.1 µM]	13%[46.1 µM]	0%	-13%	11%	.
Cc1cc(NC(=O)c2c(Br)c(C)nn2C)no1	14%	-2.9%	4%	47%	7%	4%	-2%	0%
Cc1ccc(OC(F)F)c(NC(=O)Nc2cccc(C(F)(F)F)c2)c1	-9%	-8.3%	?	?	-31%	0%	?	4%
CC(OC(=O)C1CC(=O)N(Cc2ccccc2)C1)C(=O)Nc1cccc(C#N)c1 (stereo not given)	21%	.	2%	16%	3%	2%	-20%	.
COc1ccc(C/C(N)=N/OC(=O)c2cccc([N+](=O)[O-])c2)cc1	-36%	-11%	?	?	-77%	-16%	-11%	4%
CC(=O)c1ccc(OCc2cc(C(=O)NCC3CCCCO3)no2)cc1 (stereo not given)	7%	.	.	.	2%	11%	-2%	.
O=C(CS(=O)(=O)Cc1ccccc1)N1CCN(c2cccc(C(F)(F)F)c2)CC1	-4%	-17%	0%	1%	1%	3%	0%	?
CC(=O)OC(C(=O)NCCN1CCOCC1)c1c(F)cccc1F (stereo not given)	8%	.	.	.	-1%	6%	-10%	.
CNc1nc(C)c(C(=O)OCc2ccccc2)s1	-55%	-5.5%	-1%	19%	-9%	10%	32%[activator]	6%
O=C(Cc1ncc(C(F)(F)F)cc1Cl)Nc1cccc(Br)c1	2%	-7.2%	3%	-7%	-5%	-15%	-12%	-8%
Cc1cc(OCCCn2c(CCNC(=O)C3CCCCC3)nc3ccccc32)ccc1Cl	.	1.4µM*	-25%[46.1 µM]	?	.	.	-4%	7%
CCc1ccc(NC(=O)C(=O)NCC(O)c2ccccc2)cc1 (stereo not given)	6%	.	7%	4%	1%	-8%	2%	.
O=C(CCn1c(=O)c2cccn2c2cccnc21)NCc1ccccc1F	.	-0.5%	15%[46.1 µM]	.	.	.	5%	13%
Cc1ccc(S(=O)(=O)N2CCN(C(=O)COC(=O)CC(C)c3ccccc3)CC2)c(C)c1 (stereo not given)	.	.	-3%	20%	-5%	0%	-27%	.

The last 3 compounds of the section above come first, to join the parts.
SMILES	NS1 function inh	Cruzain Triton	Lassa entry inh	Marburg entry inh	SARS PLpro yeast	RE007 growth inh	2A StopGo	Cruzain inh noDet
CCc1ccc(NC(=O)C(=O)NCC(O)c2ccccc2)cc1 (stereo not given)	6%	.	7%	4%	1%	-8%	2%	.
O=C(CCn1c(=O)c2cccn2c2cccnc21)NCc1ccccc1F	.	-0.5%	15%[46.1 µM]	.	.	.	5%	13%
Cc1ccc(S(=O)(=O)N2CCN(C(=O)COC(=O)CC(C)c3ccccc3)CC2)c(C)c1 (stereo not given)	.	.	-3%	20%	-5%	0%	-27%	.
OCCN1CCOCCOc2ccccc2OCCOCC1	-2%	.	.	.	-4%	5%	1%	.
CCOc1ccc(C(=O)OCC(=O)N2CCCC2)cc1	-5%	.	?	?	-1%	7%	75%[activator]	.
O=c1c2c([nH]c3ccccc13)C(=C1CCCC1)CC2	-34%	-6.0%	0%	6%	-14%	-13%	-26%	-7%
Cn1cc(CN2CCCC(C(=O)Nc3cccc(-c4cc5ccccc5[nH]4)c3)C2)cn1 (stereo not given)	?	.	?	?	0%	0%	?	.
COC(=O)c1sc2ccccc2c1NC(=O)c1ccc(S(=O)(=O)N2CC(C)CC(C)C2)cc1 (stereo not given)	5%	-7.6%	-19%	26%	-12%	-12%	-10%	?
O=C(O)c1ccc2c(=O)n3c(nc2c1)/C(=C/c1ccc(Cl)cc1Cl)CC3	2%	.	.	.	-1%	3%	?	.
OC(C#CCN1CCCC1)c1ccccc1 (stereo not given)	-5%	9.9%	5%	9%	9%	2%	.	12%
CC(=O)c1ccc(N2CCN(C(=O)c3ccc(Br)cc3)CC2)c(F)c1	-48%	-2.5%	5%	15%[46.1 µM]	0%	16%	0%	2%
Cc1ccc(C(=O)Nc2cccnc2)cc1Cl	-56%	.	19%	12%	-12%	-19%	0%	.
CCOc1cc(C(=S)N2CCCC2)ccc1OC	-3%	.	-1%	-2%	0%	-3%	9%	.
O=C1Cc2cc(S(=O)(=O)N3CCCCC3)ccc2N1	23%	.	.	.	4%	-6%	-15%	.
COc1ccc(NS(=O)(=O)c2ccc3[nH]c4c(c3c2)CCCC4)cc1OC	.	-10.0%	-29%[46.1 µM]	.	.	.	9%	-8%
CC(=O)C(=Cc1cc(C)n(-c2ccccc2)c1C)C(C)=O	.	.	-7%	-14%[46.1 µM]	1%	-9%	11%	.
Cc1ccc(C#N)c(SCc2cc3c(cc2Cl)OCO3)n1	-9%	-1.7%	-23%	-5%&-5%	7%	1%	16%	-5%
O=C(Nc1nc2n(n1)C(c1ccccc1)C=C(c1ccccc1)N2)c1ccco1 (stereo not given)	17%	-3.5%	6%	0%&0%	7%	-5%	-5%	-5%
O=C(N/N=C/c1ccoc1)c1cccc([N+](=O)[O-])c1	8%	.	?	?	-1%	-3%	4%	.
CCOC(=O)c1nnn(-c2nonc2-n2cccc2)c1CN1CCC(C(=O)OCC)CC1	-17%	-2.5%	-16%	-15%	4%	11%	0%	18%
O=C(CN1C(=O)C2CC=C(Cl)CC2C1=O)Nc1ccc(C(=O)O)cc1 (stereo not given)	4%	0.8%	16%	-4%	-3%	8%	8%	-14%
CC(C)(CNC(=O)c1ccc(-c2cccc(C(F)(F)F)c2)o1)N1CCOCC1	.	.	2%	10%	-9%	-17%	-9%	.
CC(=O)c1c(C)[nH]c(C(=O)Nc2ccc(Cl)c(S(=O)(=O)N(C)C)c2)c1C	0%	.	.	.	2%	-1%	33%[activator]	.
O=C(C1=C[C@H](c2csc3ccccc23)C[C@H](OCc2ccc(CO)cc2)O1)N1CCN(Cc2ccc3c(c2)OCO3)CC1	9%	.	.	.	-1%	-5%	?	.

High-throughput results as filed in PubChem.
